# Bfl-1 A1 inh = inhibitors of the anti-apoptotic protein A1, read as caspase activation; caspase activation, % (test concentration not listed); AID 2462; 330,000 compounds, 0.066% hits; MEF A1-2A-BIM cells, Caspase-Glo 3/7 luminescence, 3 h; percent of clofoctol response, vehicle zero;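 active = over half of replicate activation scores above 10%, or exactly half above 10 with the replicate mean above 10; inconclusive = replicate mean below 10 yet half the replicates above 10; inactive = over half of replicates below 10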;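 also: wells of about 30 µL received 50 nL stock; many hits fall short of the cut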
# AF4-AF9 inh = inhibitors of human MLL-AF4/AF9 interaction | P42568 | AlphaScreen, biotin-AF4 peptide binding to FLAG-AF9 | inhibition, % at 10 µM | 350,000 compounds, 0.47% hits;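 active = every replicate reaching a set inhibition limit, whatever the replicate mean, cut at about 25% in these data; inconclusive = mean inhibition reaches that limit but some replicates miss it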;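 also: 0% = plate neutral control median and 100% = total signal loss; the record names both 10 and 1 µM as test concentration; the first replicate is given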
# Target sequence (P42568 whole entry, looked up): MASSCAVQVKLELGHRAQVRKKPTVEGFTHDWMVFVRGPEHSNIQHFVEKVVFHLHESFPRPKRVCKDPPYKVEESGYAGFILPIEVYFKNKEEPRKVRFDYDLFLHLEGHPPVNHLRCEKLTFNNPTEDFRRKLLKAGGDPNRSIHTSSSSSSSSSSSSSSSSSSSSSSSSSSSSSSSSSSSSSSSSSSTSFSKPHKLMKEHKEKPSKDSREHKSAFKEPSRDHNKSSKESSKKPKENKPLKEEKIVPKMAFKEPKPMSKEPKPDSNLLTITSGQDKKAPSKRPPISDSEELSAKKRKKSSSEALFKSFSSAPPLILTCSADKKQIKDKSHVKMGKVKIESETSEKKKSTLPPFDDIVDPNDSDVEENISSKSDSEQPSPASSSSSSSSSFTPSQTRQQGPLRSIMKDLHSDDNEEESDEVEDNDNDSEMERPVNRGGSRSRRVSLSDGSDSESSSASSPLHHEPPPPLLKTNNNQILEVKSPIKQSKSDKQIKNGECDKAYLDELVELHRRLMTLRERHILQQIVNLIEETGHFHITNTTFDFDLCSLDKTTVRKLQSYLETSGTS
# RanGTP-Impb inh = disruptors of Ran-importin-beta complex formation – biochemical, FRET, CFP-Ran, YFP-importin-beta, homogeneous, primary screen; cell-free CFP-Ran/YFP-importin-beta FRET ratio; inhibition, % (test concentration not listed); 300,000 compounds, 1.1% hits;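 active = most replicates above 15%; inconclusive = exactly half above 15%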;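 also: 0% = DMSO wells and 100% = Ran loaded with GDP instead of GTP; wells of about 40 µL received 100 nL stock; the first replicate is given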
# Beta cell apopt = beta cell apoptosis inhibition. INS-1E cytokine-induced death, ATP luminescence, 48 h; percent of positive-control rescue, neutral wells zero. 300,000 compounds, 0.8% hits. protection from apoptosis, % (concentration not given with the values);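 active = all replicates at 75% or more, or half of them and the mean; inconclusive = half reach 75% but not the mean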;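 also: 0% = cytokine-treated negative control wells and 100% = positive control rescue; higher means more ATP so stronger rescue from cytokine killing; wells of about 40 µL received 100 nL stock; the first replicate is given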
# LANA-H2B inh = blocks KSHV LANA binding to histone H2A/H2B | AID 2629 | Q9QR71 | cell-free LANA-H2A/H2B peptide, fluorescence polarization | 320,000 compounds, 0.6% hits | inhibition, % (test concentration not listed); in the data active = inhibition mostly above about 10%, no sharp cut-off; inactive = mostly below about 6.7%;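 also: stock transfer was 7.5 nL into about 10 µL; 0% = median of vehicle wells and 100% = median of positive control wells; one replicate is shown; the record names a cut of 25% in any replicate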
# Vif A3G = inhibitors of Vif binding to APOBEC3G peptide, primary screen, biochemical, TR-FRET, GST-Vif 1-94, biotin-A3G peptide, dose response retest (AID 1117319); TR-FRET GST-Vif / biotin-A3G peptide binding; higher % means a stronger effect; test concentration not given here; strong numbers were not always called active; inhibition, %; hits with a dose series show IC50 in µM; 260,000 compounds, 0.57% hits;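 active = above the screen mean plus three standard deviations and confirmed in dose response; inconclusive = results disagree or hit not tested in dose response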;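 also: Vif residues 1-94 fused to GST binding biotinylated APOBEC3G peptide 110-148; 0% = full assay without inhibitor and 100% = GST in place of GST-Vif; retest series ran down from 100 µM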
# Calb FLC = affects C. albicans growth with fluconazole. C. albicans CaCi-2 (fluconazole-resistant clinical isolate) + fluconazole, Alamar Blue growth, 48 h. growth inhibition, % (no concentration beside the values). 300,000 compounds, 0.57% hits;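 active = most replicates above 75%; inconclusive = exactly half above 75%; inactive = most below 75%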;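 also: all wells also contain fluconazole at 8 µg/ml as a sub-toxic cotreatment; 0% = median of DMSO wells and 100% = median of geldanamycin control wells; wells of about 8 µL received 7.5 nL stock; the first replicate is given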
# T cruzi repl = T. cruzi replication inhibition | T. cruzi beta-gal in NIH3T3, luminescence, 90 h | inhibition, % (concentration not given with the values) | 300,000 compounds, 1.4% hits | AID 1885;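 active = mean inhibition across valid replicates above about 55%, limit read from the data; inconclusive = mean below that limit but half or more replicates reach it; inactive = mean below it, under half of replicates reach it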;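 also: signal also drops with host cell toxicity which is not excluded here; 0% = plate median of DMSO wells and 100% = zero luminescence signal; higher percent means less beta-gal luminescence so fewer parasites; stock transfer was 50 nL into about 50 µL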
# An asterisk follows results filed as active; ? = inconclusive; . = no result given.
# The line under a structure holds: Vif A3G	T cruzi repl	LANA-H2B inh	Bfl-1 A1 inh	RanGTP-Impb inh	AF4-AF9 inh	Beta cell apopt	Calb FLC
- COc1ccc(-c2cc(=O)oc3c(C)c(OC(C)C(=O)NCc4ccccn4)ccc23)cc1 (stereo not drawn)
    .	19	-4.7	0.5	-3.6	-1.6	.	18
- CN(C)S(=O)(=O)c1cccc(C(=O)NCCc2ccccc2)c1
    -7%	-3	-2.0	-0.2	-6.9	.	2	-1
- CCOc1ccc(CCNS(=O)(=O)c2cnc[nH]2)cc1OCC
    -4%	-4	-7.1	1.4	-0.9	.	.	-13
- Cn1cc(/C=C2\SC(=S)N(N3CCOCC3)C2=O)c2ccccc21
    -2%	-22	-3.3	-1.3	-2.5	-4.4	-6	7
- Cc1c(CC(=O)NCC(=O)NCC(=O)O)c(=O)oc2c(C)c3oc4c(c3cc12)CCCC4
    -3%	-8	0.9	0.8	-10	1.2	-2	7
- CCN(c1nc(N)c(C(=O)N=C(N)N)nc1Cl)C(C)C
    .	26	-7.0	0.1	4.3	7.6	.	9
- O=C(NC(=S)Nc1ccc(F)c([N+](=O)[O-])c1)c1ccccc1F
    -10%	-6	-0.9	1.8	1.7	0.0	3	30
- CN(Cc1ccccc1)C(=O)C(=O)c1cn(CC(=O)N2CCCC2)c2ccccc12
    .	1	-4.6	1.8	7.7	2.1	-6	7
- Cc1cc(-c2c(C)[nH]n(-c3ccc(Cl)cc3)c2=O)n[nH]1
    ?	2	-7.8	-5.1	3.2	.	37	37
- COn1c(-c2ccc(Cl)cc2)nc2ncccc21
    .	-3	-0.9	-1.7	-2.7	-0.8	2	3
- O=C(CCc1ccc(S(=O)(=O)N2CCOCC2)cc1)Nc1ccc2ccccc2c1
    0%	23	-1.9	0.3	3.6	.	-1	6
- C=CCSC1=C(C#N)C(c2ccccc2)CC(=O)N1 (stereo not drawn)
    -6%	-6	-1.6	0.6	-0.9	.	-11	10
- C=CCc1ccc(OCCn2nnc3ccccc32)c(OC)c1
    -12%	0	5.2	-1.6	-5.1	4.7	.	1
- CC(=O)Nc1ccc(NS(=O)(=O)c2ccc3c(c2)oc(=O)n3C)cc1
    .	-16	-4.1	0.3	-6.3	-6.2	.	-1
- CCc1ccc(C2C(C#N)=C(N)C(C#N)(C#N)C3=CCC(C(C)(C)C)CC32)cc1 (stereo not drawn)
    -1%	50	0.4	-0.7	?	.	4	12
- O=C(Cc1cccs1)NCCS(=O)(=O)N1CCN(c2cccc(Cl)c2)CC1
    0%	6	-2.7	-0.7	1.5	-0.7	-2	10
- Cc1ccc(Nc2nc(/N=C/N(C)C)n[nH]2)cc1C
    5%	-16	.	-0.2	4.0	-0.8	-1	15
- CC(=O)c1cc2c(=O)c3ccccc3oc2nc1C
    -2%	-13	-5.0	0.2	?	.	2	8
- Cc1ccc(C(=O)NNC(=O)c2ccc(SCC3CCCO3)c([N+](=O)[O-])c2)cc1 (stereo not drawn)
    -4%	-3	-2.0	-0.7	-0.2	0.9	-1	-30
- CCN1C(=NCCOC)N[C@@H](c2cccc(F)c2)C(C(=O)OC)=C1C
    .	-9	7.4	0.9	?	.	-1	-8
- COc1ccc(CN2C(=O)c3cccnc3C2Nc2ccc(C)cc2)cc1 (stereo not drawn)
    4%	-3	2.0	0.0	1.7	.	-6	12
- CC(C)C(=O)Nc1ccc(Br)cc1Cl
    -3%	-10	-2.4	-0.4	3.3	0.5	-8	3
- Cc1c(C(=O)O)cnc2cc(-c3ccc(Cl)cc3)nn12
    3%	-11	-2.0	-8.7	-1.3	3.1	.	-5
- CC(C(=O)Nc1nccs1)c1ccc([N+](=O)[O-])cc1 (stereo not drawn)
    .	-7	-14	0.5	0.5	-3.0	-10	-1
- COC(=O)c1cc(S(=O)(=O)N2CCN(c3ccc(OC)cc3)CC2)cn1C
    .	-18	0.0	-1.8	-3.1	-0.5	-3	0
- Cc1snc(SCc2c(F)cccc2Cl)c1C#N
    -5%	11	2.8	0.0	1.7	-4.3	-3	4
- CS(=O)(=O)N(CC(=O)Nc1ccccc1Cl)c1ccc(Cl)cc1
    -3%	9	1.5	-0.2	3.5	1.1	-14	-17
- CCn1c(COc2ccc(=O)n(-c3ccccc3)n2)nnc1SCC(=O)OC
    -9%	-7	-2.0	0.3	-0.3	-0.3	-2	5
- CN(C)S(=O)(=O)c1ccc(S(=O)(=O)N2CCCC2)cc1
    4%	-5	4.5	-0.2	2.1	.	-7	1
- Cc1cc(C(=O)N2CCN(c3ncccn3)CC2)nn1C
    -3%	-11	-0.7	0.6	1.5	-1.6	-6	-3
- Cc1ccc(N2CC(C(=O)NC3CC3)CC2=O)cc1 (stereo not drawn)
    -4%	-11	-1.6	0.0	-2.5	-3.7	-2	-3
- CCN(CC)CCn1c(N)cc(=O)[nH]c1=O
    5%	-20	-3.3	0.3	-2.2	0.0	0	-18
- Nc1cc(C(=O)OCC(=O)NC(c2ccccc2)c2ccccc2)ccc1Cl
    4%	-22	4.2	-1.0	?	.	4	11
- Cc1cccc(NC(=O)c2ccc([N+](=O)[O-])o2)c1C
    5%	9	0.8	0.5	4.7	3.6	-27	37
- CSc1nnc(-c2ccco2)n1-c1ccccc1
    6%	-4	-3.2	0.7	-2.4	.	-1	-20
- CC(C)N1CCN(Cc2coc3ccccc3c2=O)CC1CCO (stereo not drawn)
    5%	17	-1.7	-1.0	1.0	.	-5	11
- O=C(COC(=O)c1cccnc1Cl)NC(=O)c1ccc(OC(F)F)cc1
    .	.	-0.7	1.2	.	3.0	-2	.
- COc1ccc(C(=O)Nc2ccc(C(=O)OCC(=O)c3ccccc3)cc2)cc1
    0%	-5	-0.1	-1.4	-2.8	.	4	-2
- Cc1ccc(C(=O)N/C(=C\c2ccco2)C(=O)N2CCOCC2)cc1C
    0%	-5	1.3	0.5	3.5	1.0	-8	4
- CN(C)Cc1nc2ccccc2c(=O)n1Cc1nc(-c2cccc([N+](=O)[O-])c2)cs1
    .	37	-3.1	-0.1	1.2	?	6	2
- O=S(=O)(Nc1nc2ccccc2nc1Cl)c1ccc2ccccc2c1
    ?	2	.	-0.4	0.6	.	-3	-1
- O=C(/C=C/c1ccco1)Nc1ccccc1N1CCCC1
    .	2	-0.8	0.4	?	2.5	-1	13
- CC(C)Sc1nc2c(c(=O)n(C)c(=O)n2C)n1Cc1ccc(Cl)cc1
    1%	29	12	-0.2	0.5	.	2	2
- CCCNS(=O)(=O)c1ccc2c(c1)CCCN2C(C)=O
    -6%	-10	1.0	-0.9	24*	.	-1	5
- COc1cc(CNc2ccccc2Oc2cc(=O)n(C)c(=O)n2C)cc(OC)c1OC
    -9%	-8	-5.3	0.0	0.0	.	0	-7
- Cn1nc(C(=O)NNC(=O)CCc2ccccc2Cl)c2ccccc2c1=O
    2%	-13	3.0	0.2	1.1	-1.3	-16	3
- CCCC(CCC(=O)Nc1cc([N+](=O)[O-])ccc1O)C(=O)O (stereo not drawn)
    .	-11	0.2	-0.1	3.6	0.6	-4	-15
- Cc1ccc(CSCC(=O)N/N=C/c2ccc(OCC(=O)Nc3ccc(C)cc3)cc2)cc1
    0%	6	-2.2	-0.1	-0.7	.	1	-5
- S=c1[nH]c2ccccc2n1CCOc1ccccc1
    .	-31	0.6	0.4	5.0	2.5	-2	-24
- CC(C)c1ccc(S(=O)(=O)N2CCC3(CC2)OCCO3)cc1
    .	-7	-1.5	-0.6	.	0.1	3	.
- O=C(O)CCC(=O)N1CN2CN(C(=O)CCC(=O)O)CC([N+](=O)[O-])(C2)C1
    1%	-6	-1.6	0.7	-2.2	2.3	-10	-2
- COc1ccc(NC(=O)NNC(=O)c2ccc(-c3ccccc3)cc2)cc1
    .	-4	-5.3	1.1	-2.1	-12	-3	0
- CC(C)C(NS(=O)(=O)c1cccc2nsnc12)C(=O)NCCC1=CCCCC1 (stereo not drawn)
    3%	-9	5.8	0.5	-0.8	9.6	-7	-9
- COC(=O)[C@@H]1C[C@@]2(O)[C@H](O)[C@H](O)[C@H](O)C[C@H]2N1C/C=C/c1ccccc1
    3%	-15	-0.6	-0.2	2.2	0.9	-5	8
- CC(=O)C1=C(O)CC(c2ccccc2)CC1=NCCc1ccccc1 (stereo not drawn)
    22%	10	-1.2	1.0	3.5	1.4	2	?
- CCOc1cc2c(cc1OC)C(c1cccc([N+](=O)[O-])c1)NCC2 (stereo not drawn)
    3%	1	0.6	-0.8	-4.7	-0.2	-12	-11
- Nc1ccc(-c2nc3ncccc3o2)cc1
    .	-7	-3.0	-1.1	1.9	5.6	3	-5
- O=C(NCC(c1ccco1)N1CCN(c2ccc(F)cc2)CC1)OCc1ccccc1 (stereo not drawn)
    .	0	1.3	-3.0	3.1	13	9	3
- CCOC(=O)c1c(C)[nH]c(N=Nc2ccccc2C)c1C
    5%	34	-5.1	-0.5	-2.4	.	.	6
- O=C(O)C1C2CC3C(OC(=O)C31)C2Cl (stereo not drawn)
    -5%	-13	2.8	0.4	-4.1	.	1	0

# Later entries:
# The line under a structure holds: Vif A3G	T cruzi repl	LANA-H2B inh	Bfl-1 A1 inh	RanGTP-Impb inh	AF4-AF9 inh	Beta cell apopt	Calb FLC
- COc1cc(Cl)c(C)cc1NC(=O)CSc1nnc(CN2CCCC2)o1
    .	.	10	1.5	.	-2.4	2	.
- COc1ccc(Nc2ncnc3ccccc23)cc1
    10%	0	-6.7	0.5	4.1	.	.	-14
- Cc1ccc(-c2nc(N)c3c(-c4ccc(C)cc4)nn(C(C)(C)C)c3n2)cc1
    -3%	5	1.7	0.4	0.9	.	-1	-5
- CCCCOC(=O)c1ccc(NC(=O)c2cnccn2)cc1
    ?	-1	0.1	-4.6	5.7	.	5	4
- O=C(Cn1cncn1)c1ccc(F)cc1F
    ?	-13	-3.9	0.6	0.6	2.2	-8	-5
- Cn1c(CNC(=O)c2ccco2)nnc1SCC(=O)N1CCN(c2ccccc2F)CC1
    .	9	3.1	0.6	2.3	3.0	-1	16
- O=C(c1ccco1)N(Cc1ccc(Cl)cc1)C1CCS(=O)(=O)C1 (stereo not drawn)
    .	-31	2.9	-0.3	3.0	1.1	-3	24
- COc1ccccc1CNC(=O)COC(=O)c1cccc(S(=O)(=O)N2CCCC2)c1
    -1%	4	-2.1	0.3	-2.5	-0.5	-3	26
- COc1ccc(CCCc2nnc(SCC(=O)Nc3ccc(C)c(C)c3)o2)cc1
    2%	-14	12	-0.8	1.3	.	-4	-3
- Cc1nc(NC(=O)CSc2nnnn2C)sc1C
    -6%	9	1.7	-0.5	4.7	.	-6	11
- Cc1noc(C)c1C(=O)Nc1nccs1
    3%	12	3.7	0.1	-2.0	-2.3	-3	-6
- Cc1ccc(-c2csc3ncnc(Sc4nnc(CN5CCCCCC5=O)o4)c23)cc1
    -8%	-66	-1.7	0.0	-2.9	.	-1	?
- CCOc1ccc(C(=O)Oc2cc(C)[nH]c(=O)c2[N+](=O)[O-])cc1
    .	-9	-0.1	0.2	?	-6.7	2	3
- CCc1nc2c(cnn2-c2ccc(Cl)cc2)c(=O)n1-c1ccc2c(c1)OCCO2
    -5%	24	-4.4	0.3	-1.5	.	0	-6
- CC1(C)Cc2c(sc(NC(=O)c3ccco3)c2C#N)CO1
    -5%	-17	-0.1	-1.7	11	.	4	0

# Compound activity (PubChem)
